Bioassay records: PubChem BioAssay, National Center for Advancing Translational Sciences (NCATS)
GLA inh pH 4.5: alpha-galactosidase A (human) inhibition, pH 4.5. P06280. purified enzyme, 4-MU-alpha-Gal fluorescence, pH 4.5. activity change, negative = inhibition, % at 105 µM. 230,000 tested, under 10 active. AID 1467; inconclusive = small, poorly fitted or top-dose-only inhibition, or a rising curve; inactive = flat fitted curve, though single readings scatter; no compound was filed as active;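 further: 0% = full activity with enzyme and -100% = basal without enzyme; dose as in the result columns while the protocol names 77 µM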
Rango-impB inh: prevents formation of the Rango-importin beta complex; Q14974; Rango CFP/YFP FRET sensor + importin beta, 45 min; Potency, µM (doses to about 92.2 µM), for the others: top-dose inhibition of complex formation; 340,000 tested, 0.031% active; AID 540263; active = rising FRET ratio curve, often small or poorly fitted; inconclusive = mostly compound fluorescence or quenching in the first reads; inactive = flat curves in all reads;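 further: potency means the concentration at half of the fitted maximal effect; 0% = DMSO wells and 100% = buffer wells lacking importin beta; nearly all actives have a fitted effect of over 15% in size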
Target sequence (Q14974 whole entry, looked up): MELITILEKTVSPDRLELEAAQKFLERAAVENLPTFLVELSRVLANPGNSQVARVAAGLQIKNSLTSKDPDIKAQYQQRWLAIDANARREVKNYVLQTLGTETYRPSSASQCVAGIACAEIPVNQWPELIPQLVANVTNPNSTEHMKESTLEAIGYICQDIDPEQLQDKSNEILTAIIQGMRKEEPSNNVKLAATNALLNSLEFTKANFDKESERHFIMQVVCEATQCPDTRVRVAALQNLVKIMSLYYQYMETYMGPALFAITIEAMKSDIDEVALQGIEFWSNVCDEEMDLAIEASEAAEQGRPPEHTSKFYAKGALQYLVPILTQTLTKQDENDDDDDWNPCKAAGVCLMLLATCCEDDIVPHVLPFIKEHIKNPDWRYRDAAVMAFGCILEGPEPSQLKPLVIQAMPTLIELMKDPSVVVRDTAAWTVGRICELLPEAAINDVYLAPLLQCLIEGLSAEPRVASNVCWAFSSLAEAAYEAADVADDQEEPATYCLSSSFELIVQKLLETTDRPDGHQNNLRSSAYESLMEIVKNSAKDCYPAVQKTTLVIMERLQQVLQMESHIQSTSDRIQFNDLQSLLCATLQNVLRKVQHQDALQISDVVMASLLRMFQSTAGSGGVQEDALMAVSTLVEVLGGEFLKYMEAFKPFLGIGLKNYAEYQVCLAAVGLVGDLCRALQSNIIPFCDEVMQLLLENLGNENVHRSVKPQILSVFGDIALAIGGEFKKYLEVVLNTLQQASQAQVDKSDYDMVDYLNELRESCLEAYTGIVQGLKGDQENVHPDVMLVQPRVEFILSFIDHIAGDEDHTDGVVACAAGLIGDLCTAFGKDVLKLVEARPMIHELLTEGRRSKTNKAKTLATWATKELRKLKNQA
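Inhibition scored from the CFP 486 nm/YFP 530 nm FRET ratio 45 min after adding 0.125 microM importin beta to 50 nM Rango biosensor preincubated 5 min with compound (room temperature, PBS with DTT, Tween-20, BSA). No-importin wells as positive control.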
Rango release inh: inhibitors of RanGTP-induced Rango-importin beta complex dissociation. O95149+P62826. Biochemical FRET Rango-importin beta, RanGTP-induced dissociation. Potency, µM (doses to about 46.1 µM), inactives show at the top dose activity change, negative = inhibition. 340,000 tested, 0.071% active; active means falling FRET ratio curve, often poorly fitted, with flat reads before Ran was added; inconclusive means other falling curves, or compound fluorescence or quenching; inactive means flat or rising ratio curve;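 further: potency means the concentration at half of the fitted maximal effect; % of control where 0% means no effect; nearly all actives have a fitted effect of over 45% in size; -100% = wells without RanGTP and RCC1; the record marks most hits as doubtful in a second field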
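Compounds preincubate 5 min with complex of recombinant Rango and importin beta in PBS with 1 mM DTT. Ran (0.6 uM) loaded with 2 mM GTP plus 0.2 uM RCC1 starts dissociation; FRET is recorded 45 min later.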
miR-21 reporter: miR-21 reporter, rising signal; 340,000 tested, under 10 active; Potency, µM (titrated, usually from 38.3 µM), without a hit: at the highest dose reporter change, positive = more light; HeLa miR-21 FLuc reporter, luciferase, 48 h; active = well fitted rising curve with a large enough effect; inconclusive = small, poorly fitted or top-dose-only effect; inactive = no such curve, though single readings can be large or run the other way;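 further: % of control where 0% means no effect; miR-21 action dims this reporter so a rising signal means less miR-21 action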
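HeLa cells stably expressing CMV-driven firefly luciferase with a downstream miR-21 binding sequence, endogenously expressing miR-21, were treated with titrations (up to about 40uM final) for 48 hours at 37 degree Celsius. Luciferase luminescence was read after lysis.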
* marks the source's active call; other numbers are inactive results; & = joins results of further samples.

Results for CSc1ncccc1C(=O)Nc1ccc(S(=O)(=O)NC2=NCCCCC2)cc1 ?
GLA inh pH 4.5: -27; Rango-impB inh: -2.2%; Rango release inh: -9%; miR-21 reporter: -1%

How did O=C(Cc1ccccc1)N/N=C/c1cc(Br)c(Br)o1 do in these assays?
GLA inh pH 4.5: 3; Rango-impB inh: 0.3%; Rango release inh: 5%; miR-21 reporter: -51%

How did CC1CC1C(=O)Nc1nc2ccc(S(C)(=O)=O)cc2s1 (stereo not given) do in these assays?
Rango-impB inh: 2.9%; Rango release inh: -11%; miR-21 reporter: -27%

How did CC(NC(=O)COC(=O)Cc1ccc(Cl)cc1)c1ccccc1 (stereo not given) do in these assays?
Rango-impB inh: 0.6%; Rango release inh: 4%

What do the screens show for `COc1ccccc1OCC(=O)Nc1ccc(S(=O)(=O)N(C)c2ccccc2)cc1`?
Rango-impB inh: 0.0%; Rango release inh: 5%; miR-21 reporter: 11%

How did CC(=O)c1ccc(NC(=O)CN2C(=O)COc3ccc(Cl)cc32)cc1 do in these assays?
GLA inh pH 4.5: -5; Rango-impB inh: -0.8%; Rango release inh: 22%; miR-21 reporter: 0%

How did S=C(NC1CCCCC1)N(CCc1nc2ccccc2[nH]1)C1CCCC1 do in these assays?
GLA inh pH 4.5: -10; Rango-impB inh: -1.3%; Rango release inh: -1%; miR-21 reporter: -1%

How did CN(Cc1ccccc1)Cc1ccccc1C(O)c1ccccc1 (stereo not given) do in these assays?
Rango-impB inh: -5.3%; Rango release inh: 0%

What do the screens show for `Cc1cc(S(=O)(=O)N2CCOCC2)ccc1OCC(=O)Nc1ccc(F)cc1`?
Rango-impB inh: -0.7%; Rango release inh: -15%; miR-21 reporter: 0%

What do the screens show for `Cn1cc(CN2CCCC(CO)(Cc3cccc(Cl)c3)C2)cn1` (stereo not given)?
Rango-impB inh: -3.7%; Rango release inh: 0%; miR-21 reporter: -2%

What do the screens show for `O=C(COc1ccc2ccccc2c1)Nc1cccc2c1C(=O)NC2=O`?
GLA inh pH 4.5: 4; miR-21 reporter: -1%

How did COCc1[nH]nc2c1C(c1ccsc1)C(C#N)=C(N)O2 (stereo not given) do in these assays?
GLA inh pH 4.5: -1; Rango-impB inh: 2.4%; Rango release inh: -10%; miR-21 reporter: -1%

How did O=C(c1cccc([N+](=O)[O-])c1)c1ccc2[nH]c(=O)[nH]c2c1 do in these assays?
Rango-impB inh: -1.0%; Rango release inh: -19%; miR-21 reporter: -5%

What do the screens show for `Oc1ccc(Br)cc1CNn1cnnc1`?
GLA inh pH 4.5: -5; Rango-impB inh: 0.5%; Rango release inh: 2%; miR-21 reporter: -5%

How did CCN(c1ccccc1)S(=O)(=O)c1ccc(Cl)c(C(=O)OCC(=O)NC(=O)C(C)C)c1 do in these assays?
GLA inh pH 4.5: 0; Rango-impB inh: -0.3%; Rango release inh: -17%; miR-21 reporter: 3%

How did O=C(Nc1sc2c(c1C(=O)O)CCCC2)c1cccc(Cl)c1 do in these assays?
Rango-impB inh: 3.8%; Rango release inh: 22%; miR-21 reporter: 15%

What do the screens show for `COc1ccc([C@H]2/C=C\CN(S(=O)(=O)/C=C/c3ccccc3)[C@@H](C)C(=O)N2Cc2ccc(F)cc2)cc1`?
Rango-impB inh: inconclusive; Rango release inh: 8%

How did COc1cc(NC(=O)CCc2nc(-c3cccs3)no2)cc(OC)c1OC do in these assays?
GLA inh pH 4.5: -6; Rango-impB inh: -0.5%; Rango release inh: 8%; miR-21 reporter: -2%&6%

What do the screens show for `Nc1cc(=O)[nH]c(SC/C=C/c2ccccc2)n1`?
GLA inh pH 4.5: 11; Rango-impB inh: -0.1%; Rango release inh: -2%; miR-21 reporter: -17%

Results for Cc1cc(C)c(C(=O)Nc2ccc(S(=O)(=O)Nc3ccccn3)cc2)c(C)c1 ?
Rango-impB inh: 4.1%; Rango release inh: 5%; miR-21 reporter: 13%

Overlap with the part before: 3 entries, followed by the next part.
How did COc1cc(NC(=O)CCc2nc(-c3cccs3)no2)cc(OC)c1OC do in these assays?
GLA inh pH 4.5: -6; Rango-impB inh: -0.5%; Rango release inh: 8%; miR-21 reporter: -2%&6%

What do the screens show for `Nc1cc(=O)[nH]c(SC/C=C/c2ccccc2)n1`?
GLA inh pH 4.5: 11; Rango-impB inh: -0.1%; Rango release inh: -2%; miR-21 reporter: -17%

Results for Cc1cc(C)c(C(=O)Nc2ccc(S(=O)(=O)Nc3ccccn3)cc2)c(C)c1 ?
Rango-impB inh: 4.1%; Rango release inh: 5%; miR-21 reporter: 13%

What do the screens show for `CSCC[C@H](NC(=O)N1CCn2c1nc1ccccc12)C(=O)N[C@@H](C(=O)O)c1ccccc1`?
Rango-impB inh: 2.9%; Rango release inh: 4%; miR-21 reporter: 0%

Results for O=C(NN1C(=O)C2C3c4ccccc4C(c4ccccc43)C2C1=O)C1CC1 (stereo not given) ?
GLA inh pH 4.5: 8; Rango-impB inh: 0.6%; Rango release inh: 23%; miR-21 reporter: -1%

How did CC1(c2ccccc2)CC(C)(C)n2c(O)c(C3=NC(=S)NC3=O)c3cccc1c32 (stereo not given) do in these assays?
GLA inh pH 4.5: 0; Rango-impB inh: inconclusive; Rango release inh: -17%; miR-21 reporter: -5%

How did O=C(/C=C/c1ccc([N+](=O)[O-])o1)NNC(=O)c1ccc(F)cc1 do in these assays?
Rango-impB inh: inconclusive; Rango release inh: 21µM*; miR-21 reporter: inconclusive

What do the screens show for `N/C(=N\OC(=O)CSc1ccccc1)c1cccc([N+](=O)[O-])c1`?
GLA inh pH 4.5: -7; Rango-impB inh: 3.6%; Rango release inh: -7%; miR-21 reporter: -49%

Results for Cc1c(C)n(CC(O)CN2CCCCCC2)c2ccccc12 (stereo not given) ?
GLA inh pH 4.5: -1; Rango-impB inh: 4.9%; Rango release inh: -4%; miR-21 reporter: -2%

Results for C=CCn1c(SCC(=O)c2c(N)n(C)c(=O)n(C)c2=O)nc2sc(CC)cc2c1=O ?
GLA inh pH 4.5: -19; Rango-impB inh: 4.6%; Rango release inh: -4%; miR-21 reporter: -8%

How did Cc1cc(-c2ccc(Cl)cc2)c(C#N)c(N)n1 do in these assays?
GLA inh pH 4.5: 5; Rango-impB inh: inconclusive; Rango release inh: -3%; miR-21 reporter: -7%

What do the screens show for `CCN1CCN(c2ncnc3c2c(-c2ccccc2)cn3-c2ccc(F)cc2)CC1`?
GLA inh pH 4.5: 1; Rango-impB inh: -3.5%; Rango release inh: 5%; miR-21 reporter: -2%

Results for CC(=O)c1c(C)[nH]c(C(=O)COC(=O)COc2ccccc2F)c1C ?
Rango-impB inh: 0.9%; Rango release inh: -6%

What do the screens show for `Nc1ccc(NC(=O)c2cccs2)cc1`?
GLA inh pH 4.5: 0; Rango-impB inh: -0.9%; Rango release inh: 1%; miR-21 reporter: 4%

What do the screens show for `Cc1ccc2sc(N(CCN(C)C)C(=O)/C=C/c3cccs3)nc2c1C`?
Rango-impB inh: 5.8%; Rango release inh: -1%; miR-21 reporter: -9%

What do the screens show for `CC1CCc2c(sc3nc(CN4CCOCC4)nc(Sc4ccccc4)c23)C1` (stereo not given)?
GLA inh pH 4.5: -3; Rango-impB inh: -1.0%; Rango release inh: -7%; miR-21 reporter: -4%

Results for COc1ccc(C2=Nn3c(nnc3-c3ccccc3F)SC2)cc1OC1CCCC1 ?
Rango-impB inh: -1.0%; Rango release inh: 9%

Results for COc1ccc(C2(CNC(=O)c3ccc(OCC(C)C)cc3)CCOCC2)cc1 ?
GLA inh pH 4.5: -10; Rango-impB inh: 1.5%; Rango release inh: 1%; miR-21 reporter: -3%

How did Cc1cc(C(=O)NCc2ccco2)sc1C do in these assays?
Rango-impB inh: -2.1%; Rango release inh: 16%

How did Cc1c(NC(=O)Nc2ccc(Cl)cc2)c(=O)n(-c2ccccc2)n1C do in these assays?
GLA inh pH 4.5: 1; Rango-impB inh: 2.8%; Rango release inh: -9%; miR-21 reporter: 0%

Results for Cc1cc(NC(=O)c2ccccc2C)ccc1NC(=O)c1ccccc1Cl ?
Rango-impB inh: -0.5%; Rango release inh: 11%; miR-21 reporter: -21%

Results for COc1ccc(Nc2ncc(C(=O)O)c3ccccc23)cc1 ?
GLA inh pH 4.5: 3; Rango-impB inh: 0.1%; Rango release inh: -2%; miR-21 reporter: -1%

Results for O=C(CCCCCCN1C(=O)c2ccccc2C1=O)N1CCC(c2ccccc2)C1 (stereo not given) ?
GLA inh pH 4.5: -22; Rango-impB inh: -0.1%; Rango release inh: -5%; miR-21 reporter: -4%

Results for CC(C)CC1(C)NC(=O)N(CC(=O)N2C(C)CCCC2C)C1=O (stereo not given) ?
Rango-impB inh: -4.6%; Rango release inh: -9%

Results for Cc1cc(C)nc(SCC(=O)Nc2nonc2N)n1 ?
GLA inh pH 4.5: 4; Rango-impB inh: 0.6%; Rango release inh: 1%; miR-21 reporter: 0%

What do the screens show for `CCn1c(SCC(=O)N(C)CC(=O)Nc2ccc(F)c(F)c2F)nnc1-c1ccco1`?
Rango-impB inh: 0.7%; Rango release inh: 2%; miR-21 reporter: -3%

How did O=C(CCC(=O)N1CCCC1)Nc1ccc(Cl)c(Cl)c1 do in these assays?
Rango-impB inh: 0.6%; Rango release inh: -1%; miR-21 reporter: -1%

How did CN1CCN(c2nc3c(c(=O)[nH]c(=O)n3C)n2CCSc2ncccn2)CC1 do in these assays?
GLA inh pH 4.5: -11; miR-21 reporter: 0%

Results for Cc1ccc([N+](=O)[O-])cc1N/C=C/C(=O)c1ccco1 ?
GLA inh pH 4.5: 0; Rango-impB inh: inconclusive; Rango release inh: -10%; miR-21 reporter: -32%

What do the screens show for `Cc1nn(C(C)C(=O)NCCN2CCCCCC2)c(=O)c2nn(-c3ccccc3)c(C)c12` (stereo not given)?
Rango-impB inh: 0.2%; Rango release inh: 4%; miR-21 reporter: 0%

What do the screens show for `Cc1ccc(N(C(=O)CCC(=O)Nc2cc(C)on2)C(C(=O)NC2CCCC2)c2cccs2)cc1` (stereo not given)?
GLA inh pH 4.5: 1; Rango-impB inh: -3.6%; Rango release inh: -7%; miR-21 reporter: 8%

How did CCCN1C(=O)SC(CC(=O)Nc2cccc3ccccc23)C1=O (stereo not given) do in these assays?
GLA inh pH 4.5: -1; Rango-impB inh: -1.6%; Rango release inh: 7%; miR-21 reporter: -4%

How did C=CCN1C(=O)C(Cc2ccccc2)SC1=Nc1ccc(C(=O)O)cc1 (stereo not given) do in these assays?
GLA inh pH 4.5: -4; Rango-impB inh: -1.5%; Rango release inh: -10%; miR-21 reporter: -9%

Results for CCOc1ccc(NC(=O)CC2C(=O)N(c3ccc(OC)cc3)C(=O)N2CCc2cccs2)cc1 (stereo not given) ?
GLA inh pH 4.5: -5; Rango-impB inh: -4.9%; Rango release inh: -6%; miR-21 reporter: 1%

What do the screens show for `CN(C)c1ccc(C(CNC(=O)c2ccc(F)cc2)c2c[nH]c3ccccc23)cc1` (stereo not given)?
GLA inh pH 4.5: -6; Rango-impB inh: -2.2%; Rango release inh: -6%; miR-21 reporter: 2%

Results for Cc1ccc2[nH]c(=O)c(-c3nc4ccccn4c3NCc3ccco3)cc2c1 ?
GLA inh pH 4.5: -4; Rango-impB inh: 2.9%; Rango release inh: 6%; miR-21 reporter: -31%

Results for CCCCc1cc(=O)oc2cc(OC3CCCCC3=O)ccc12 (stereo not given) ?
Rango-impB inh: 5.0%; Rango release inh: -2%; miR-21 reporter: -2%

Gathered by group, the entries above containing bromine (2)
How did O=C(Cc1ccccc1)N/N=C/c1cc(Br)c(Br)o1 do in these assays?
GLA inh pH 4.5: 3; Rango-impB inh: 0.3%; Rango release inh: 5%; miR-21 reporter: -51%

What do the screens show for `Oc1ccc(Br)cc1CNn1cnnc1`?
GLA inh pH 4.5: -5; Rango-impB inh: 0.5%; Rango release inh: 2%; miR-21 reporter: -5%

Some of the compounds tested. The share of hits here may be higher or lower than overall.
